DUX4 inh: inhibitors of DUX4-driven ZSCAN4 reporter expression, primary screen, 293T cells, Gaussia and Italica luciferase; 293T-iDUX4 ZSCAN4-Gaussia luciferase reporter, 24 h; active compounds read low; activity change, negative = inhibition, % (no concentration beside the values); 37,000 compounds, 0.8% hits;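 active = -10% or lower and over 25 points stronger than a control reporter; inconclusive = -10% or lower with a smaller gap; inactive = above -10%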;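 note: 0% = median of neutral control wells and -100% = median of positive control wells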
DUX4 inh difference: second read-out of DUX4 inh, no call of its own (marks repeat the call); Gaussia minus Italica difference, %; measured here: selective DUX4 reporter inhibition;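 worked out from the two reporters; negative = selective loss of the DUX4 reporter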
DUX4 inh control: recorded beside DUX4 inh, whose call it bears; activity change, negative = inhibition, %; measured here: Italica tet-on control reporter;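 0 = neutral control and -100 = positive control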
An asterisk follows results filed as active; ? = inconclusive; nt = no result given; & = joins results of further samples.

SMILES | DUX4 inh | DUX4 inh difference | DUX4 inh control
CNC[C@H]1Oc2ccc(NS(=O)(=O)c3c(C)noc3C)cc2CC(=O)N([C@@H](C)CO)C[C@@H]1C | 1 | -1 | 2.1
CCC(=O)N1[C@H](CO)[C@H](c2ccc(-c3cncnc3)cc2)[C@@H]1CN(C)C(C)=O | 2 | -1 | 2.6
CN(C)CCCNC(=O)C[C@@H]1CC[C@H]2[C@@H](COC[C@H](O)CN2Cc2cccc(Cl)c2)O1 | -1 | 1 | -1.7
O=C(Cc1ccncc1)N1CC(=O)N2[C@H](CO)[C@H](c3ccc(Br)cc3)[C@@H]2C1 | 13 | 14 | -1.0
O=S(=O)(Cc1ccccc1)NCC[C@@H]1CC[C@@H](NS(=O)(=O)c2ccc(F)cc2)[C@H](CO)O1 | -2 | -4 | 1.8
Cc1ccc(S(=O)(=O)NCC[C@H]2CC[C@@H](NC(=O)c3cccnc3)[C@H](CO)O2)cc1 | 1 | -1 | 2.2
CNC[C@@H]1Oc2ncc(C#CCC3CCCC3)cc2C(=O)N([C@H](C)CO)C[C@H]1C | 0 | -7 | 6.9
O=C(C[C@@H]1CC[C@@H]2[C@H](COC[C@H](O)CN2Cc2cc(F)ccc2F)O1)NCc1ccc(Oc2ccccc2)cc1 | ? | nt | nt
CC(C)(C)[S@@](=O)N1Cc2cc(C(=O)NCCc3ccncc3)nc(-c3cccc(-c4ccccc4)c3)c2[C@H]1CCO | 4 | 1 | 2.4
CC(C)[C@H]1COCn2nncc2CCCC(=O)N1 | -4 | -6 | 1.4

Exported tab-delimited: part of the list above.
Structure	DUX4 inh	DUX4 inh difference	DUX4 inh control
CC(C)(C)[S@@](=O)N1Cc2cc(C(=O)NCCc3ccncc3)nc(-c3cccc(-c4ccccc4)c3)c2[C@H]1CCO	4	1	2.4
Cc1ccc(S(=O)(=O)NCC[C@H]2CC[C@@H](NC(=O)c3cccnc3)[C@H](CO)O2)cc1	1	-1	2.2
CNC[C@H]1Oc2ccc(NS(=O)(=O)c3c(C)noc3C)cc2CC(=O)N([C@@H](C)CO)C[C@@H]1C	1	-1	2.1
CN(C)CCCNC(=O)C[C@@H]1CC[C@H]2[C@@H](COC[C@H](O)CN2Cc2cccc(Cl)c2)O1	-1	1	-1.7
CNC[C@@H]1Oc2ncc(C#CCC3CCCC3)cc2C(=O)N([C@H](C)CO)C[C@H]1C	0	-7	6.9
O=S(=O)(Cc1ccccc1)NCC[C@@H]1CC[C@@H](NS(=O)(=O)c2ccc(F)cc2)[C@H](CO)O1	-2	-4	1.8
CCC(=O)N1[C@H](CO)[C@H](c2ccc(-c3cncnc3)cc2)[C@@H]1CN(C)C(C)=O	2	-1	2.6

Later entries
SMILES | DUX4 inh | DUX4 inh difference | DUX4 inh control
COc1ccccc1C(=O)Nc1ccc2c(c1)C(=O)N(C)[C@@H]1CC[C@@H](CC(=O)NCCc3ccncc3)O[C@H]1CO2 | -3 | -3 | -0.4
COc1ccc(S(=O)(=O)N[C@H]2C=C[C@H](CC(=O)NCc3ccccc3F)O[C@@H]2CO)cc1 | 3 | 4 | -0.6
O=C(C1CCOCC1)N1CC(=O)N2[C@H](CO)[C@H](c3ccc(C#CC4CCCCC4)cc3)[C@H]2C1 | 2 | -7 | 9.3
CC(C)C#Cc1ccc([C@H]2[C@H](CO)N3C(=O)CN(C(=O)c4ccc5c(c4)OCO5)C[C@@H]23)cc1 | 2 | 3 | -0.6
CN(C)C(=O)[C@@H]1[C@@H](CO)[C@@H]2Cn3c(ccc(-c4ccncc4)c3=O)[C@@H]2N1Cc1ccccc1 | 6 | 4 | 1.8
C[C@@H]1CN([C@@H](C)CO)C(=O)c2ccccc2-c2ccccc2CO[C@@H]1CN(C)Cc1ccc(Cl)c(Cl)c1 | -31* | -32* | 1.3*
CC(C)CC#Cc1ccc([C@H]2[C@H](CO)N3C(=O)CN(C(=O)c4cccc(F)c4)C[C@@H]23)cc1 | -38* | -28* | -9.7*
C/C=C/c1ccc([C@H]2[C@@H](CN(C)C(=O)CC)N(C(=O)C3CC3)[C@H]2CO)cc1 | 1 | -7 | 7.9
C/C=C/c1ccc([C@@H]2[C@H](CO)N(CCC(F)(F)F)C23CN(C(=O)CC2CC2)C3)cc1 | ? | nt | nt
O=C([C@@H]1[C@@H](CO)[C@@H]2Cn3c(ccc(C4=CCCC4)c3=O)[C@H]1N2C(=O)c1cccnc1)N1CCOCC1 | -2 | 0 | -1.3
COCC(=O)N1[C@@H](C#N)[C@H](c2ccc(-c3cccnc3)cc2)[C@@H]1CO | -1 | -2 | 1.1
CC(=O)N1[C@@H]2c3ccc(-c4ccncc4)c(=O)n3C[C@@H]2[C@@H](CO)[C@@H]1C(=O)NC1Cc2ccccc2C1 | -6 | -1 | -4.2
COCCNC(=O)C[C@@H]1CC[C@H]2[C@@H](COC[C@@H](O)CN2Cc2ccc(Cl)c(Cl)c2)O1 | -2 | -2 | -0.9
OC[C@H]1[C@H](c2ccccc2)C2(CN(Cc3ccccc3F)C2)N1Cc1ccccc1F | -35* | -25* | -9.2*
CC(=O)N1[C@H](CO)[C@H](c2ccc(-c3ccncc3)cc2)[C@@H]1CNC(=O)CC1CC1 | 3 | 6 | -2.8
C[C@@H]1CN([C@@H](C)CO)C(=O)Cc2cc(NC(=O)Cn3cnnn3)ccc2O[C@@H]1CN(C)Cc1ccc(Oc2ccccc2)cc1 | 5 | 3 | 2.2
CCC(=O)N1CC2(C1)CN(C(=O)c1cnccn1)[C@@H](CO)c1c2c2ccc(OC)cc2n1C | 21 | 17 | 3.6
Cc1ccc(S(=O)(=O)N(C)C[C@H]2OCc3ccccc3-c3ccccc3C(=O)N([C@@H](C)CO)C[C@@H]2C)cc1 | 10 | 8 | 2.5
Cn1cnc(S(=O)(=O)N2[C@@H]3CNC[C@H]2C3c2ccc(/C=C/c3ccccc3)cc2)c1 (stereo partly drawn) | 13&15 | 18&22 | -5.4&-6.8
N#C[C@H]1[C@@H](c2ccc(C#CC3CCCCC3)cc2)[C@@H](CO)N1S(=O)(=O)c1ccccc1 | 3 | -2 | 5.3

Filtered by structure: those above containing an aryl methoxy group (three)
SMILES | DUX4 inh | DUX4 inh difference | DUX4 inh control
COc1ccccc1C(=O)Nc1ccc2c(c1)C(=O)N(C)[C@@H]1CC[C@@H](CC(=O)NCCc3ccncc3)O[C@H]1CO2 | -3 | -3 | -0.4
COc1ccc(S(=O)(=O)N[C@H]2C=C[C@H](CC(=O)NCc3ccccc3F)O[C@@H]2CO)cc1 | 3 | 4 | -0.6
CCC(=O)N1CC2(C1)CN(C(=O)c1cnccn1)[C@@H](CO)c1c2c2ccc(OC)cc2n1C | 21 | 17 | 3.6

Next part.
SMILES | DUX4 inh | DUX4 inh difference | DUX4 inh control
O=C(NCc1cccc(F)c1)[C@@H]1[C@@H](CO)[C@@H]2Cn3c(ccc(-c4ccncc4)c3=O)[C@H]1N2CC1CC1 | 3 | -1 | 3.7
C/C=C/c1ccc([C@@H]2[C@H](CO)N(C(=O)CC)[C@H]2CNC(=O)C2CC2)cc1 | 3 | 2 | 1.3
CNC[C@H]1Oc2c(NC(=O)C3CCOCC3)cccc2C(=O)N([C@H](C)CO)C[C@H]1C | 4 | 4 | -0.5
COc1ccccc1-c1ccc2c(c1)O[C@H](CN(C)C(=O)c1ccncc1)[C@H](C)CN([C@H](C)CO)S2(=O)=O | -2 | -4 | 1.7
CC(C)NC(=O)N1CC(=O)N2[C@H](CO)[C@H](c3ccc(C#CCN(C)C)cc3)[C@@H]2C1 | 12 | -2 | 13
C[C@H]1CN([C@@H](C)CO)C(=O)c2cc(-c3ccncc3)cnc2O[C@@H]1CN(C)S(=O)(=O)c1ccccc1 | -2 | -2 | 0.3
O=S(=O)(c1ccccc1F)N1CCCCN2[C@H](C1)[C@H](c1ccc(-c3cncnc3)cc1)[C@@H]2CO | 0 | -9 | 9.1
COCC#Cc1cnc2c(c1)C(=O)N([C@@H](C)CO)C[C@H](C)[C@@H](CN(C)C(=O)Nc1ccccc1OC)O2 | 1 | 1 | -0.5
C[C@@H]1CN([C@@H](C)CO)C(=O)c2cc(C#CCC3CCCC3)cnc2O[C@@H]1CN(C)S(=O)(=O)c1cccs1 | 1 | 1 | -0.6
COc1cccc(-c2ccc(C3[C@@H]4CN(S(=O)(=O)c5ccccc5F)C[C@H]3N4)cc2)c1 (stereo partly drawn) | -7 | -35 | 28
COc1cccc(C(=O)Nc2ccc3c(c2)C(=O)N(C)[C@@H]2CC[C@@H](CC(=O)NCc4ccc(F)cc4)O[C@@H]2CO3)c1 | -3 | -3 | 0.2
O=S(=O)(c1ccccc1)N1C[C@H]2[C@@H](c3ccccc31)[C@@H](CO)N2Cc1ccccn1 | -3 | -4 | 0.2
C[C@H](NC(=O)C[C@@H]1C[C@@H]2c3cc(NC(=O)Nc4ccc(C(F)(F)F)cc4)ccc3O[C@@H]2[C@@H](CO)O1)c1ccccc1 | ? | nt | nt
COc1cccc(S(=O)(=O)Nc2ccc3c(c2)[C@@H]2C[C@H](CC(=O)NC4CCCCC4)O[C@H](CO)[C@@H]2O3)c1 | 0 | 3 | -3.6
O=C(C1CCOCC1)N1CC(=O)N2[C@H](CO)[C@H](c3ccc(C#Cc4cccc(F)c4)cc3)[C@@H]2C1 | -9 | -10 | 1.0
COc1ccc(-c2ccc([C@@H]3[C@H](C#N)N(C(=O)NC4CCCCC4)[C@H]3CO)cc2)cc1 | 2 | 3 | -0.8
O=C([C@H]1[C@H](CO)[C@H]2Cn3c(ccc(-c4ccncc4)c3=O)[C@@H]1N2Cc1ccccc1)N1CCOCC1 | 4 | 1 | 2.3
COCCNC(=O)C[C@H]1CC[C@@H]2[C@@H](COc3ccc(NC(=O)C4CCOCC4)cc3C(=O)N2C)O1 | -6 | -3 | -2.4
Cn1cnc(S(=O)(=O)N2CC[C@@H]3[C@H](CO)Nc4ccc(-c5ccccc5)cc4[C@@H]32)c1 | 13 | 11 | 2.7
O=C(c1ccccn1)N1CC(=O)N2[C@H](C1)[C@@H](c1ccc(C#Cc3ccccc3)cc1)[C@@H]2CO | ? | nt | nt
C[C@@H]1CCCCO[C@H](CN(C)C(=O)Cc2ccccc2)[C@H](C)CN([C@@H](C)CO)C(=O)c2cc(NC(=O)c3ccncc3)ccc2O1 | 0 | -1 | 0.4
COc1ccc2c3c(n(C)c2c1)[C@@H](CO)N(Cc1ccccc1)CC31CCN(S(=O)(=O)c2ccc(C)cc2)CC1 | ? | nt | nt
COc1ccccc1C(=O)N1C[C@H]2[C@@H](c3ccccc31)[C@@H](CO)N2CC1CCCC1 | -8 | 1 | -9.2
C[C@@H]1CN([C@H](C)CO)C(=O)c2cc(NC(=O)Nc3ccc(C(F)(F)F)cc3)ccc2O[C@@H](C)CCCCO[C@H]1CN(C)S(=O)(=O)c1cn(C)cn1 | -6 | -3 | -3.3
CCC(=O)N1C[C@@H](O)COC[C@@H]2O[C@H](CC(=O)N3CCCCC3)CC[C@H]21 | 6 | 3 | 3.4
C[C@@H]1CN([C@@H](C)CO)C(=O)c2ccccc2-c2ccccc2CO[C@@H]1CN(C)S(=O)(=O)c1cccs1 | 8 | -1 | 8.9
COc1ccc(-c2ccc(C3[C@@H]4CN(Cc5ccccn5)C[C@H]3N4)cc2)cc1 (stereo partly drawn) | ? | nt | nt
CCC(=O)NC[C@H]1[C@H](c2ccc(C3=CCCC3)cc2)[C@@H](CO)N1C(=O)C1CC1 | -2 | 2 | -4.4
C[C@@H](NC(=O)C[C@H]1CC[C@@H]2[C@H](COC[C@H](O)CN2C(=O)Nc2cc(Cl)cc(Cl)c2)O1)c1ccccc1 | ? | nt | nt
C[C@@H](NC(=O)[C@H]1[C@H](CO)[C@H]2Cn3c(cccc3=O)[C@@H]1N2C(=O)C1CCC1)c1ccccc1 | -2 | -6 | 3.6
Cc1ccccc1-c1ccccc1[C@H]1[C@@H](C#N)N(C(=O)c2cccc(F)c2)[C@@H]1CO | -5 | 10 | -15
CO[C@H]1CN(C)C(=O)c2ccc(NS(C)(=O)=O)cc2OC[C@H](C)N(CC2CC2)C[C@H]1C | -8 | -5 | -3.1
C[C@H]1CN([C@@H](C)CO)C(=O)c2cc(C#CC3(O)CCCC3)cnc2O[C@@H]1CN(C)C(=O)Cc1ccncc1 | -3 | -5 | 2.0
COCC#Cc1ccc2c(c1)O[C@H](CN(C)Cc1ccc3c(c1)OCO3)[C@@H](C)CN([C@@H](C)CO)S2(=O)=O | 0 | 0 | -0.6
COc1ccccc1NC(=O)N1CC[C@@H]2[C@@H](CO)N(C)c3ccc(-c4ccc(F)cc4)cc3[C@@H]21 | -3 | -3 | -0.1
CCCC(=O)N1CC2(C1)CN(C(=O)Cc1ccccn1)[C@H](CO)c1[nH]c3cc(OC)ccc3c12 | 5 | -11 | 15
CC=Cc1ccc2n(c1=O)C[C@@H]1[C@@H](CO)[C@H](C(=O)NCCC)[C@H]2N1S(=O)(=O)c1cn(C)cn1 (mixture of isomers) | 3 | 0 | 3.2
CC(=O)N1CC(=O)N2[C@@H](CO)[C@H](c3ccc(-c4ccc(C(=O)N(C)C)cc4)cc3)[C@@H]2C1 | 1 | -5 | 6.2
COc1ccc(-c2ccc([C@H]3[C@H]4CN(C(=O)NC(C)C)CC(=O)N4[C@H]3CO)cc2)cc1 | 4 | -5 | 9.6
Cn1cnc(S(=O)(=O)N2CC[C@@H]3[C@H]2c2cc(C#Cc4ccccc4)ccc2N[C@@H]3CO)c1 | -7 | -5 | -2.6
O=C(C1CC1)N1CCCCN2[C@H](C1)[C@@H](c1ccc(C#CC3CCCC3)cc1)[C@@H]2CO | -24* | -26* | 1.4*
O=C(C[C@H]1CC[C@@H]2[C@H](COC[C@H](O)CN2C(=O)c2ccccc2)O1)Nc1ccc(-c2ccccc2)cc1 | ? | nt | nt
COc1cccc(NC(=O)N(C)C[C@H]2OCc3ccccc3-c3ccccc3C(=O)N([C@H](C)CO)C[C@@H]2C)c1 | 8 | 1 | 6.5

Bioassay records (PubChem BioAssay)

Not all compounds are listed; the hit share may differ from the screen's.
